Screens from PubChem.
SARS PLP yeast = blocks SARS-CoV papain-like protease in a yeast assay. S. cerevisiae expressing SARS-CoV PLpro, growth rescue; control for the full effect not named in the record. Potency, µM (doses to about 32.9 µM), inactives show top-dose activity, positive = growth rescue. 330,000 compounds, 0.19% hits. AID 485353; note: 0% is about no effect; nearly all actives have a fitted effect of over 55% in size; growth read by luminescence after 48 h
Cruzain inh Det = inhibitors of Trypanosoma cruzi cruzain with detergent; P25779; purified cruzain, Z-FR-AMC fluorescence, 0.01% Triton; Potency, µM, without a hit: max response, negative = inhibition, actives largely listed as inhibitors; 200,000 compounds, 0.43% hits; AID 1478; active = well fitted curve in the direction sought with a large enough effect; inconclusive = small, poorly fitted or top-dose-only effect, or another doubt; inactive = no such curve, though single readings can be large; an effect the other way counts as inactive or inconclusive;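 note: plate controls were neutral wells for no effect and buffer without enzyme for full effect; nearly all actives have a fitted effect of over 40% in size; top concentration of the series not given in the record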
Target sequence (P25779 123-467 limits assumed): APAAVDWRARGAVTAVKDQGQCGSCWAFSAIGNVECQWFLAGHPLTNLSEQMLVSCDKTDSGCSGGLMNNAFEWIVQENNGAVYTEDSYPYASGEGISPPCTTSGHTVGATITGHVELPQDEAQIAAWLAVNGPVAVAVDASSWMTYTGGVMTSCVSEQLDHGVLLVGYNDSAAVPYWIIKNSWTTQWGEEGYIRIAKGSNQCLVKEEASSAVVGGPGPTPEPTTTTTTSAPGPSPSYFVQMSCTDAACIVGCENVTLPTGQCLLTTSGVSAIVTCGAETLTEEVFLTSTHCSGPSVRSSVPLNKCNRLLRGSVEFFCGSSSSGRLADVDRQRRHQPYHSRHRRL
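Steps: dispense cruzain (1.5 nM final) in acetate buffer pH 5.5 with DTT and 0.01% Triton X-100; pin-transfer compounds; incubate 15 min RT; add Z-FR-AMC (2 uM final); read fluorescence every 30 s, using the 60 s intensity change.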
Lassa entry inh = blocks Lassa virus binding to or entry into cells | Potency, µM (highest dose often 37.9 µM), for inactives: at the highest dose activity change, negative = inhibition, usual class: inhibitors | 300,000 compounds, 1.2% hits | Lassa virus pseudotype entry inhibition, cell reporter; control for the full effect not named in the record; active means well fitted inhibition curve with a large enough effect; inconclusive means small, poorly fitted or top-dose-only effect, or effect the other way; inactive means flat fitted curve, though single readings scatter; tested in HEK293 cells; note: % is set by controls: 0 for no effect and ±100 for the full control effect; nearly all actives have a fitted effect of over 50% in size; luciferase read-out
Cruzain noTriton = cruzain (T. cruzi) inhibition without detergent. purified cruzain, Z-FR-AMC fluorescence, no detergent. Potency, µM, for inactives: max response, negative = inhibition, usual class: inhibitors. 200,000 compounds, 2.3% hits; active = well fitted curve in the direction sought with a large enough effect; inconclusive = small, poorly fitted or top-dose-only effect, or another doubt; inactive = no such curve, though single readings can be large; an effect the other way counts as inactive or inconclusive;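 note: plate controls were enzyme without inhibitor for no effect and buffer without enzyme for full effect; nearly all actives have a fitted effect of over 40% in size; top concentration of the series not given in the record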
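Detergent-free condition (0.00005% Triton X-100) in acetate buffer pH 5.5 with DTT. 1.5 nM enzyme and compound were pre-mixed 15 min, then 2 uM Z-FR-AMC substrate added; reaction progress from fluorescence change between first and third reads (60 s).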
MARV entry inh = blocks Marburg virus binding to or entry into cells. Marburg virus pseudotyped entry inhibition, cell reporter; control for the full effect not named in the record; about a third of the inactives were read at about 46 µM. 300,000 compounds, 1.8% hits. AID 540276. Potency, µM (top dose mostly 37.8 µM), inactives show top-dose activity change, negative = inhibition, most hits filed as inhibitors; active = well fitted inhibition curve with a large enough effect; inconclusive = small, poorly fitted or top-dose-only effect, or effect the other way; inactive = flat fitted curve, though single readings scatter; tested in HEK293 cells; about a fifth of its hits are not listed in these tables; note: % is set by controls: 0 for no effect and ±100 for the full control effect; luciferase read-out
RE007 growth inh = less growth of the S. pombe RE007 Vpr strain. Potency, µM (series often up to 92.2 µM), for the others: top-dose activity change, negative = less growth. 360,000 compounds, 0.21% hits. AID 651644. S. pombe RE007 Vpr strain, BacTiter-Glo ATP luminescence, 24 h; control for the full effect not named in the record; active = well fitted falling curve with a large enough effect; inconclusive = small, poorly fitted or top-dose-only effect; inactive = no such curve, though single readings can be large or run the other way;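 note: % is set by controls: 0 for no effect and ±100 for the full control effect; nearly all actives have a fitted effect of over 50% in size; the assay follows cell death caused by Vpr and the record does not say whether a fall means rescue or toxicity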
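Fission yeast strain RE007, carrying one chromosomally integrated HIV-1 vpr copy, was seeded at OD 0.01 in PMG+AL medium with 23 nL pinned compound. After 24 h at 30 °C and 99% humidity, viability was read by BacTiter-Glo luminescence.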
StopGo reporter = lowers the luciferase signal of an FMDV 2A StopGo reporter. Potency, µM (titrated, usually from 57.9 µM), for the others: at the highest dose signal change, negative = less light. human cells with a luciferase reporter of 2A StopGo recoding; control for the full effect not named in the record. 410,000 compounds, 1.2% hits; active = well fitted falling curve with a large enough effect; inconclusive = small, poorly fitted or top-dose-only effect; inactive = no such curve, though single readings can be large or run the other way; tested in HEK293T cells; note: % is set by controls: 0 for no effect and ±100 for the full control effect; nearly all actives have a fitted effect of over 45% in size; luciferase light after 4 h
NS1 inh = blocks influenza NS1 protein function; S. cerevisiae slowed by influenza A NS1, growth recovery by OD600; Potency, µM (doses to about 46.1 µM), inactives show at the top dose activity, positive = more growth; 270,000 compounds, 0.4% hits; AID 2326; note: actives are rising curves; nearly all actives have a fitted effect of over 50% in size
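Growth recovery, yeast-based: influenza A NS1 expressed in S. cerevisiae causes slow growth, and suppressors are detected by OD600. The parent strain without NS1 is used as positive control.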
An asterisk follows results filed as active; ? = inconclusive; nt = not tested or not shown; & = joins results of further samples; [ ] = dose if it differs, or a comment. Unless noted, calls come from the whole dose curve; as a rule, active means well fitted rising curve with a large enough effect; inconclusive means small, poorly fitted or top-dose-only effect; inactive means no such curve, though single readings can be large or run the other way. Potency is the fitted concentration of half-maximal effect.

SMILES | SARS PLP yeast | Cruzain inh Det | Lassa entry inh | Cruzain noTriton | MARV entry inh | RE007 growth inh | StopGo reporter | NS1 inh
Cc1ccc(C)c(NC(=O)c2cnn(-c3ccccc3)c2C)c1 | -7.1% | nt | ? | nt | ? | 4.5% | -1.6% | -37.7%
Cc1nn(Cc2ccccc2)c(C)c1NC(=O)c1cc(-c2cccs2)on1 | -6.6% | -7.6% | 21.7%[14.3 µM] | -0.2% | -12.8% | -15.6% | ? | -35.4%
CCN(CC)C(=O)c1c(C)[nH]c(=S)c(C#N)c1-c1ccco1 | -0.5% | nt | -12.1% | nt | -4.5%[46.1 µM] | 19.1% | -11.8% | nt
c1ccc2c(c1)[nH]c1c(N3CCCC3)ncnc12 | 2.4% | -6.9% | -27.3% | -2.8% | ? | 5.0% | 12.6µM* | -10.5%
Cc1cc(N2CCCCC2)n2nc(C)c(-c3ccccc3)c2n1 | 6.6% | -7.5% | ? | 0.8% | -19.6% | -24.0% | ? | -1.8%
Cn1c(CN2CCCCC2)nc2cc(NC(=O)c3ccccc3Cl)ccc21 | -0.8% | -14.8%&-6.5% | 11.1%[46.1 µM] | -5.7%&-11.0% | ? | -13.2% | ? | 5.3%
CS(=O)(=O)Nc1ccc(C(=O)Nc2ccccc2C(=O)N2CCCC2)cc1 | 15.8µM* | 6.1% | -6.1% | 0.0% | -2.9% | -16.2% | 8.0% | -5.3%
COC(=O)C1=COC(C)C2CN3CCC4(C(=O)Nc5ccccc54)C3CC12 (stereo not given) | -1.4% | nt | nt | nt | nt | -21.9% | 0.0% | -2.7%
COc1ccc(C=NNc2nc3ccccc3s2)cc1 | nt | nt | ? | nt | 7.08µM* | 0.9% | -61.2% | nt
CCN1CCN(S(=O)(=O)c2ccc(C(=O)Nc3sc4c(c3C(N)=O)CCN(CC)C4)cc2)CC1 | -3.5% | nt | ? | nt | 8.91µM* | 1.3% | -7.6% | 5.5%
CC(C)(C)C(=O)N1NC(=Nc2ccccc2)SC1(C)C | 0.6% | nt | -23.2% | nt | -16.8%[46.1 µM] | -8.9% | ? | 6.5%
O=C(O)C1OC(C(=O)O)C(C(=O)O)C1C(=O)O (stereo not given) | nt | nt | 1.5%[46.1 µM] | nt | 28.6% | 5.6% | -21.1% | nt
O=C(CCCOc1ccccc1)NCc1ccco1 | ? | -0.2% | 14.2% | 0.4% | ? | 12.3% | 26.4% | -11.9%
O=C(c1cc(=O)[nH]c2ccc(Br)cc12)N1CCC2(CC1)OCCO2 | 1.6% | 1.4% | 15.9% | 4.9% | 4.0% | 8.0% | -1.8% | 1.8%
O=C(C/C=N\OCc1ccc(Cl)cc1Cl)Nc1ccccc1 | -10.2% | nt | 9.5%[46.1 µM] | nt | -23.1%[46.1 µM] | 1.8% | -9.4% | nt
COC1OC2COC(c3ccccc3)OC2C(=O)C1NC(=O)c1ccccc1 (stereo not given) | nt | nt | 6.2%[46.1 µM] | nt | 6.2% | -4.8% | 64.3%[activator] | nt
Cc1ccc(OCC(=O)Nc2ccc(-c3nc4ccccc4o3)cc2)c(C)c1 | nt | 1.5% | -1.5%[46.1 µM] | 10.8% | nt | nt | 22.9% | nt
Cc1cccc(C)c1OCC(=O)NNC(=O)CCNC(=O)c1ccc(Br)cc1 | -6.0% | nt | -12.6% | nt | 0.6% | -6.1% | -18.1% | -7.0%
CC1CC1C(=O)OCC(=O)Nc1cccc(S(=O)(=O)NC2=NCCCCC2)c1 (stereo not given) | -1.1% | nt | -7.9% | nt | 2.3%[46.1 µM] | -13.4% | -8.0% | 4.5%
CCc1cc2c(C)ccc(C)c2nc1SCC(=O)Nc1c[nH]c(=O)[nH]c1=O | 2.1% | nt | ? | nt | ? | -5.9% | -13.3% | 5.5%
CCOC(=O)N1CCN(C(=O)c2ccc3c(c2)NC(=O)/C(=C\c2ccc(OC)c(OC)c2)S3)CC1 | 1.7% | nt | nt | nt | nt | -4.9% | -28.2% | 8.6%
CCCCCCc1nc2c(=O)[nH]c3ccccc3c2o1 | -1.7% | 5.1% | 11.9% | -1.4% | -5.6% | 15.8% | 17.6% | -1.8%
O=C(NC(Cc1c[nH]c2ccccc12)C(=O)O)/C(=C/c1ccco1)NC(=O)c1ccccc1 (stereo not given) | -1.2% | nt | 26.2%[46.1 µM] | nt | 13.0%[46.1 µM] | 12.2% | -4.2% | 5.1%
COc1ccccc1N1CCN(C(=O)c2cc(-c3ccc4c(c3)OCO4)on2)CC1 | -4.1% | -6.0% | 8.3% | 20.9% | -13.1% | 11.0% | 6.2% | 3.6%
COC(=O)c1ccncc1C(=O)Nc1ccc(F)cc1 | 1.5% | nt | -3.6% | nt | 14.9%[46.1 µM] | -8.8% | 1.2% | nt
COc1ccc(OC)c(NC(=O)CCc2c(C)nn(-c3ccc(N4CCCC4)nn3)c2C)c1 | nt | -0.3% | ? | 13.0% | nt | nt | -11.4% | nt
Cc1ccccc1N=C(NO)c1nonc1N | -0.6% | nt | 11.0% | nt | 23.1%[46.1 µM] | -1.9% | -14.0% | -0.4%
CCN(CC)CCN1C(=O)C(=O)/C(=C(/O)c2ccc(S(=O)(=O)N3CCOCC3)cc2)C1c1ccc(Cl)cc1 (stereo not given) | -0.8% | nt | 29.6% | nt | 2.9%[46.1 µM] | 6.9% | 12.0% | 3.0%
CCOc1ccccc1Oc1nc(C)nc2c1oc1ccccc12 | nt | -2.0% | -17.3%[46.1 µM] | ? | nt | nt | -19.2% | nt
CC(=O)Nc1ccc(NC(=O)COC(=O)C2CCC(C(C)(C)C)CC2)cc1 (stereo not given) | 12.0% | nt | -19.8% | nt | ? | -21.2% | -25.6% | nt
CC(C)(C)C(=O)c1sc(Nc2ccccc2)nc1N | -12.6% | -7.8% | 14.9% | -2.8% | ? | 4.1% | nt | -14.2%
Nc1nc2nc(-c3ccc(Cl)cc3)cc(C(F)(F)F)n2n1 | 10.7% | 23.0%&10.6% | ? | -19.3%&5.4% | -7.0%[46.1 µM] | 13.0% | 8.2%&17.5% | -10.2%
CCC(=O)N1CCc2cc(Br)cc(S(=O)(=O)NCCN3CCCCC3CC)c21 (stereo not given) | 0.0% | -0.3% | 15.4% | 1.7% | ? | -11.1% | 38.8%[activator] | 4.4%
Cc1ccc(-c2c(NC(=O)C(C)C)n(C)c3ccccc3c2=O)cc1 | 1.2% | nt | 2.9% | nt | -20.6% | 14.7% | -8.0% | 5.6%
NS(=O)(=O)c1ccc(NC(=O)CN2C(=O)COc3ccc(Cl)cc32)cc1 | nt | -18.4% | -26.2%[46.1 µM] | -6.4% | 11.2%[46.1 µM] | nt | -10.0% | nt
CCOc1ccc(/C(O)=C2/C(=O)C(=O)N(CC3CCCO3)C2c2ccco2)cc1 (stereo not given) | 0.5% | -9.4% | 9.2% | -21.2% | 8.6% | 21.1% | 9.2% | 14.9%
O=C(Nc1nc2nccc(-c3ccccc3)n2n1)c1ccc(F)cc1 | 7.5% | 3.0% | -1.9% | -7.9% | 24.3% | 15.6% | -4.3% | 5.2%
Cc1ccc(OCC(=O)O/N=C(\N)Cc2ccc(Cl)cc2)cc1 | -8.2% | -3.7% | 10.9% | -1.6% | 1.6% | -25.5% | 3.6% | -17.0%
CCOC(=O)C(Cc1ccccc1)NS(=O)(=O)c1ccc(NC(C)=O)cc1 (stereo not given) | 4.6% | -0.6% | 0.8% | -1.8% | 2.0% | 16.9% | 45.4%[activator] | 2.2%
COc1ccc([N+](=O)[O-])cc1N(CC(=O)Nc1ccccc1C(=O)N1CCOCC1)S(C)(=O)=O | -0.6% | nt | 10.6% | nt | ? | -16.2% | -18.7% | -0.7%
Cc1nc2nc(CNC(=O)OC(C)(C)C)nn2c(C)c1CCC(=O)NCc1ccccc1Cl | nt | -1.7% | 23.8%[46.1 µM] | 1.4% | nt | nt | 7.7% | nt
O=C(c1ccco1)N1CCN(C(=O)c2nn3cccnc3c2Cl)CC1 | ? | 5.2% | -3.5% | -8.8% | 9.9% | -0.4% | 0.5% | 16.9%
COc1ccc(CNC(=O)c2ccc(NC(=O)N3CCSc4ncccc43)cc2)cc1 | nt | -9.0% | 5.5%[46.1 µM] | -4.2% | nt | nt | -7.9% | nt
COc1ccccc1C(=O)Nc1sc(C(=O)N2CCCC2)c(C)c1C#N | -6.6% | nt | -3.1%[46.1 µM] | nt | ? | 8.9% | 0.8% | -57.2%
COc1ccc(OC)c(NC(=O)C2CCN(S(=O)(=O)c3c(C)noc3C)CC2)c1 | 1.9% | 2.4% | 9.5% | -0.9% | 10.6%[46.1 µM] | 21.5% | -22.4% | -5.9%
O=S(=O)(c1c(Cl)sc(Cl)c1Br)N1CCCC1 | -2.9% | nt | nt | nt | nt | -24.0% | -6.1% | -38.2%
COc1ccc(C2CC(c3cccs3)=NN2S(=O)(=O)c2ccc(C)cc2)cc1 (stereo not given) | nt | nt | ? | nt | 3.1% | 0.0% | 40.9%[activator] | nt
Cc1cc(NC(=O)C(C)N2C(=O)c3ccccc3S2(=O)=O)no1 (stereo not given) | ? | nt | 0.6% | nt | 0.2% | -6.5% | -18.0% | nt
COCCNC(=O)CSc1nc2cc(OC)c(OC)cc2c(=O)n1Cc1ccco1 | 10.7% | -0.1% | -0.9% | 11.8% | -1.5% | -13.7% | 19.2% | -11.7%
O=S(=O)(c1ccc2[nH]c3c(c2c1)CCCCC3)N1CCN(c2cccc(Cl)c2)CC1 | nt | -0.9% | ? | 7.94µM* | nt | nt | 0.0% | nt
COc1ccc(NC(=O)C(C)Sc2nnc3c4c(nc(-c5ccc(OC)cc5)n23)CC(C)(C)OC4)cc1 (stereo not given) | -6.3% | -4.5% | nt | ? | 1.0% | -15.5% | -15.2% | 0.1%
Cc1cccc(N2CCN(CC(=O)Nc3ccc(S(=O)(=O)N4CCOCC4)cc3)CC2)c1C | 0.6% | nt | nt | nt | nt | -18.4% | ? | -22.3%
Brc1cc2c(cc1Br)OCCOCCOCCOCCO2 | 0.1% | nt | 5.7% | nt | 15.6%[46.1 µM] | -15.9% | 0.0% | nt
CCOc1ccc(/C=N/NC(=O)c2cc(-c3ccccc3)nc3ccccc23)cc1O | -0.2% | nt | nt | nt | 3.2% | 3.3% | ? | 0.1%
CC(O)Cn1nc([N+](=O)[O-])nc1N (stereo not given) | 1.8% | nt | 13.7%[46.1 µM] | nt | -4.7%[46.1 µM] | 4.0% | -3.7% | nt
